Screens deposited in PubChem by National Center for Advancing Translational Sciences (NCATS).
Anthrax LT inh = inhibitors of anthrax lethal toxin internalization | Cells, anthrax lethal toxin internalization, FRET ratio (460/530) | actives 0.67% (n = 70,000) | Potency, µM (titrated, usually from 40 µM), without a hit: top-dose activity change, negative = inhibition, actives largely listed as inhibitors; active = well fitted falling ratio curve with the 530 nm signal flat; inconclusive = other ratio curves, or a change in one channel alone; inactive = flat curves in the ratio and both channels; the % refers to the ratio; further: on the % scale 0 is the no-effect control and ±100 the full control effect; nearly all actives have a fitted effect of over 50% in size; tested in ME-180 cells; beta-lactamase reporter
Prx2 Sm inh = Schistosoma mansoni Prx2 inhibition | S. mansoni Prx2 activity coupled to TGR/GSH (TGR is thioredoxin glutathione reductase), NADPH fluorescence loss, qHTS; some inactives read as strong as hits | Potency, µM | actives 0.07% (n = 65,000) | AID 448; active means full or partial inhibition curve with a strong effect at the top dose; inconclusive means weaker partial or single-point curve; inactive means no accepted curve; further: series up to 57 µM; many of its hits are not listed in these tables
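Prx2 inhibition was measured as reduced NADPH consumption when electrons flowed from NADPH through TGR and glutathione to Prx2 and H2O2. Plates were read kinetically over 8 min; enzyme reagents were held at 4 deg C during dispensing.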
Numbers without * were called inactive; ? = inconclusive; nt = no result given; & = joins results of further samples; [ ] = remark or other dose. Potency means the concentration at half of the fitted maximal effect. The list is partial. The share of hits here may be higher or lower than overall.

compound | Anthrax LT inh | Prx2 Sm inh
COc1ccc(-n2c(SCC(=O)N3CCCCC3)nc(O)cc2=O)cc1 | -6% | >57
Cc1ccccc1NC(=O)Cn1nnc(-c2ccc(N3CCOCC3)cc2)n1 | 0% | >57
Cc1cc(N=Cc2cc(Br)ccc2O)no1 | ? | nt
O=C(O)Cn1nnn(-c2ccccc2)c1=S | -23% | >57
O=C(/C=C\c1ccc2c(c1)OCO2)c1ccc(F)cc1 | -11%[8 µM] | nt
CC(C)C(NC(=O)C1CCCCC1)C(=O)NC1CCN(Cc2ccccc2)CC1 (centres undefined) | 0% | >57
CCNc1ncc2nc(-c3cc(F)cc(F)c3)c(=O)n(C)c2n1 | ? | >57
OC(COc1ccccc1Cl)CN1CCN(CC(O)COc2ccccc2Cl)CC1 (centres undefined) | -18% | >57
CC(C)N(CCNC(=O)C1CCC(=O)N1Cc1ccc(F)cc1)Cc1ccccc1 (centres undefined) | ? | >57
CN(C)S(=O)(=O)c1ccc(C(=O)NCCOc2ccccc2)cc1 | nt | >57
COc1ccc(-c2nc3n(c(=O)c2C#N)CCCS3)cc1 | 8% | >57
CCc1ccc(N(C(C)=O)C2C=CS(=O)(=O)C2)cc1 (centres undefined) | 1% | >57
C=CCn1c(Oc2cc(C)ccc2C)nc2c1c(=O)n(C)c(=O)n2C | 13% | >57
CCN(CC)S(=O)(=O)c1cccc(C(=O)NC(C(=O)NC2=NCCS2)C(C)C)c1 (centres undefined) | 6% | >57
CCS(=O)(=O)N1CCCC(C(=O)NCCc2ccc(OC)c(OC)c2)C1 (centres undefined) | 6% | >57
COc1ccc(-c2csc3nc(C)n(-n4cccc4)c(=O)c23)cc1OC | -27% | >57
CNCCc1cnc[nH]1 | -14% | >57
CC(C)CC(NC(=O)C(NC(=O)OC(C)(C)C)C(C)C)C(=O)N1CCCC1C(N)=O (centres undefined) | 15% | >57
CCOC(=O)c1cnc2ccc(Br)cc2c1NCCO | -5% | nt
N=C(C[C@@H](O)COc1ccccc1-c1ccccc1)N1CCCCC1 | ? | >57
COC(=O)C(C)Oc1cc(C)cc2oc(=O)c3c(c12)CCC3 (centres undefined) | ? | >57
CCOC(=O)N1CCC(NC(=O)CCc2nc(-c3ccc(C)cc3)no2)CC1 | -7% | >57
CC(NS(=O)(=O)c1ccccc1)C(=O)Nc1nccs1 (centres undefined) | -4% | >57
CN(C)CCCc1c2ccccc2nc2ccc(Cl)cc12 | -7%[8 µM] | >57
CCOCCCN1C(=O)CN(C2CCCCCC2)C(=O)C1c1ccc(OC)cc1 (centres undefined) | ? | >57
Oc1ccccc1-c1nc(N2CCN(Cc3ccccc3)CC2)c2ccccc2n1 | -3% | >57
NCCc1nnc(SCc2c(F)cccc2Cl)o1 | -11% | >57
Cc1onc(-c2ccccc2Cl)c1C(=O)Nc1ccc(-c2cn3cccnc3n2)cc1 | 2% | >57
COc1ccc2ccccc2c1C(O)c1nccn1C (centres undefined) | 18% | nt
COc1ccccc1NC(=O)CN(c1ccccc1F)S(C)(=O)=O | ? | >57
CCOC(=O)c1cnn(-c2ncnc3c2oc2ccccc23)c1N | -1% | >57
c1ccc(Oc2cccc(OCCCn3cncn3)c2)cc1 | ? | >57
COc1ccc(-c2noc(CN3C(=O)c4ccccc4C3=O)n2)cc1 | 10% | >57
Cc1cc(NC(=O)NC2CCCN2S(=O)(=O)c2ccc(Cl)cc2)no1 (centres undefined) | 9% | >57
CC(=O)Nc1cccc(NC(=O)c2cc3ccccc3o2)c1 | -1% | >57
CCCC(C(=O)N1CCOCC1)N1C(=O)C2C3C=CC(C3)C2C1=O (centres undefined) | 3% | nt
Clc1cccc(CN2CCCCC2c2cccnc2)c1 (centres undefined) | ? | nt
COc1ccccc1NC(=O)c1ccc(S(=O)(=O)N2CCCC2)cc1 | -1% | >57
COC(=O)c1c(C)[nH]c(C(C)=O)c1C | ? | >57
Cc1ccc(-c2csc3ncnc(-n4nc(C)cc4N)c23)cc1 | 2% | >57
c1ccc(N2CCN(c3nc4cc5c(cc4s3)OCCO5)CC2)cc1 | 11% | >57
O=C(CSc1nc2cc3c(cc2c(=O)n1CCC1=CCCCC1)OCO3)NCc1ccco1 | -8% | >57
NCCC(=O)NCCc1cnc[nH]1 | -1%[3.58 µM] | >57&>57
CCON=C1C(C)(C)C(C)(C)C(C)(C)C1(C)C | ? | >57
O=C(Oc1ccc(Cl)cc1)N1CCCCC1 | -13% | nt
Cc1cccc(CC2CC(=O)N(c3ncccn3)C2=O)c1 (centres undefined) | -3% | >57
CCn1c(=O)n(CCOC)c(=O)c2c3c(sc21)CCCC3 | -5% | >57
CCOc1ccc(NC(=O)CN2CCN(S(=O)(=O)c3ccc(Cl)cc3)CC2)cc1 | -12% | >57

The final five records of the part above open the next one.
compound | Anthrax LT inh | Prx2 Sm inh
CCON=C1C(C)(C)C(C)(C)C(C)(C)C1(C)C | ? | >57
O=C(Oc1ccc(Cl)cc1)N1CCCCC1 | -13% | nt
Cc1cccc(CC2CC(=O)N(c3ncccn3)C2=O)c1 (centres undefined) | -3% | >57
CCn1c(=O)n(CCOC)c(=O)c2c3c(sc21)CCCC3 | -5% | >57
CCOc1ccc(NC(=O)CN2CCN(S(=O)(=O)c3ccc(Cl)cc3)CC2)cc1 | -12% | >57
Cc1nc(N=Nc2cc(S(=O)(=O)O)c3cc([N+](=O)[O-])cc(S(=O)(=O)O)c3c2)c(COP(=O)(O)O)c(C=O)c1O | ? | >57&>57
Cc1cc(C(C)(C)C)cc(C)c1CC1=NCCN1 | -3%[3.58 µM] | >57&>57
COCCNC(=O)c1cn(C)c(=O)c2cc(OC)c(OC)cc12 | -9% | >57
CC1CN(S(=O)(=O)c2cccc(C(=O)OCc3cc(=O)oc4cc(O)ccc34)c2)CC(C)O1 (centres undefined) | ? | >57
CCOC(=O)c1[nH]cnc1C(=O)O | -10% | >57
CC(C)n1c2ccccc2c2nc3ccccc3nc21 | -11% | >57
Cn1c(C(=O)N2CCN(c3nc4ccccc4s3)CC2)cc2sccc21 | -8% | >57
Cc1cc2ccc(=O)oc2cc1OC[C@@H](O)C(C)(C)O | -16% | >57
CCN1C(=O)C(NC(C)=O)c2cc(OC)ccc21 (centres undefined) | -8% | >57
COCC(=O)N1CCCc2ccccc21 | 0% | >57
CCOc1ccc(C2CC(c3ccc(OC)cc3)n3ncnc3N2)cc1 (centres undefined) | -13% | >57
COc1cccc(/C(O)=C2/C(=O)C(=O)N(CCN3CCOCC3)C2c2cccnc2)c1 (centres undefined) | 24% | >57
CCCC(=O)Nc1ccc(NC(=O)c2ccco2)cn1 | -4% | >57
c1ccc(N2CCCC3(CCNCC3)C2)cc1 | -15% | >57
O=C(N1CCOCC1)N1CCN(S(=O)(=O)N2CCOCC2)CC1 | ? | >57
Cc1ccc(-n2nc(C)c3c(C)c(CCC(=O)NCc4ccco4)c(C)nc32)cc1 | ? | >57
Cc1sc2ncnc(NCCCO)c2c1C | 14% | >57
COc1cc2c(cc1OC)C1(NCC2)C(=O)Nc2ccccc21 (centres undefined) | -7% | >57
Nn1c(SCC(=O)Nc2ccc(F)c(F)c2)nnc1C1CCCCC1 | -10% | >57
COCCOC(=O)C1=C(C)NC2=C(C(=O)CC(C)(C)C2)C1c1cc2c(cc1Br)OCO2 (centres undefined) | 9% | nt
Cc1ccc(CS(=O)(=O)Cc2ccc(C(=O)N3CCC4(CC3)OCCO4)o2)cc1 | 12% | >57
COc1cc(OC)c(NC(=O)Cn2cccc2)cc1Cl | -9% | >57
CC1(C)N([O-])C(c2ccccc2)=C[N+](=O)C1(C)C | 8% | >57
O=C(CCc1nc2ccccc2c(=O)[nH]1)OCc1nnc(-c2ccccc2)o1 | 11% | >57
CCc1nnc(NC(=O)c2ccc(-c3cccc(C(F)(F)F)c3)o2)s1 | 8% | >57
Cc1nc(C)c(C(=O)C2=C(O)C(=O)N(CCCN(C)C)C2c2ccco2)s1 (centres undefined) | ? | >57
O=c1[nH]c2ccccc2cc1-c1noc(-c2cccnc2)n1 | 3% | >57
CC1CCN(C(=O)C(Cc2ccccc2)NS(=O)(=O)c2ccc3c(c2)oc(=O)n3C)CC1 (centres undefined) | 3% | >57
Cc1ccc(NC(=O)c2cc(-c3cccc(O)c3)on2)cc1C | ? | >57
O=S(=O)(NCC(c1cccnc1)N1CCN(c2ccc(F)cc2)CC1)c1cc(F)ccc1F (centres undefined) | ? | >57
O=C(Cn1cnc2c(nnn2-c2ccccc2)c1=O)NCCc1ccccc1 | -1% | >57
CSc1ccc(S(=O)(=O)NC2CCCCCC2)cc1 | 5% | >57
CCCn1c(-c2ccc(F)cc2)nc2c(N3CCN(CCn4ccnc4)CC3)nc(C)nc21 | 9% | nt
COC(=O)Cn1c(CCS(=O)(=O)c2ccc(C)cc2)nc2ccccc21 | -5% | >57
COc1cccc(Cn2c(=O)c(-c3ccc(Cl)cc3)nc3cnc(N(C)C)nc32)c1 | ? | >57
Cc1c(N/C=C/C(=O)c2cccs2)c(=O)n(-c2ccccc2)n1C | -5% | nt

Reformatted with values under each structure: entries from further up.
Under each structure: Anthrax LT inh, Prx2 Sm inh
> CCc1nnc(NC(=O)c2ccc(-c3cccc(C(F)(F)F)c3)o2)s1
 : 8%, >57
> Cc1nc(C)c(C(=O)C2=C(O)C(=O)N(CCCN(C)C)C2c2ccco2)s1 (centres undefined)
 : ?, >57

(continued)
compound | Anthrax LT inh | Prx2 Sm inh
Cc1nnc(NCCc2ccccc2)n(N)c1=O | 0% | >57
CCOC(=O)c1c(C)[nH]c(C)c1C(=O)CSc1nc(N)cc(N)n1 | -6% | >57
COc1ccccc1C1C=C(c2ccc(Cl)cc2)Nc2nc(N3C(=O)CCC3=O)nn21 (centres undefined) | -23% | >57
CC(C)C(NC(=O)c1ccc(Cl)cc1)C(=O)NC1=NCCS1 (centres undefined) | -11% | >57
O=C(OCC(=O)N1CCN(C(=O)c2ccco2)CC1)c1cc(-c2ccc(F)cc2)nc2ccccc12 | ? | >57
Cc1ccc(-n2nc3c(c2NC(=O)c2ccc4c(c2)OCO4)CSC3)c(C)c1 | 2% | >57
O=C1CC(=O)N(c2ccc(Cl)cc2Cl)C(=O)N1 | -7% | nt
Nc1cccc(NC(=O)c2cccs2)c1 | 4% | >57
COc1ccccc1CNC(=O)CN(C)CC(=O)Nc1cccc(F)c1 | 1% | >57
CN(C)CCCNc1ncnc2nc[nH]c12 | -5%[8 µM] | >57
COC(=O)C(NC(=O)C(C)Oc1ccccc1)C(C)C (centres undefined) | ? | >57
COC(=O)Oc1c(Br)c(=O)oc2ccccc12 | 6% | >57
Cc1ccc(O)c(NC(=O)c2ccco2)c1 | -6% | >57
O=C(NC(=O)c1ccc(Cl)cc1)Nc1cc(N2CCCCC2)ncn1 | 10% | >57
CC(=O)N(Cc1cc2c(C)cc(C)cc2[nH]c1=O)C1CCCCC1 | -9% | >57
O=C(Nc1nc(-c2ccccc2)ns1)c1cccs1 | nt | >57
CC(C)N1CCc2c(sc(NC(=O)c3ccc(S(=O)(=O)N4CCOCC4)cc3)c2C#N)C1 | 8% | >57
CCN(CC)C(=O)Cn1cnc2ccccc2c1=O | 2% | >57
O=C(C1CCN(C2CC(=O)N(Cc3ccccc3)C2=O)CC1)N1CCCCCC1 (centres undefined) | ? | >57
N#CC1=C(N)SC2(CCCCC2)SC1c1ccccc1 (centres undefined) | -8% | >57
CCCN(CCO)Cc1ccc(Cl)c(Cl)c1 | -14% | >57
O=C(COc1ccc(Cl)cc1)N1CCN(C(=O)c2cccc(F)c2)CC1 | 11% | >57
O=C(NCC1CCCO1)C1CCC(=O)N1CCc1ccccc1 (centres undefined) | 7% | >57
O/N=C/c1c[nH]c2ccccc12 | -5% | nt
CCOC(=O)C1CCN(S(=O)(=O)c2ccc3c(c2)CCCN3C(C)=O)CC1 | 6% | >57
Cc1nnc(C)n1/N=C/c1ccc2c(c1)OCCO2 | 5% | >57
O=C(NCc1ccc2c(c1)OCO2)C1CCC(CNc2c(N3CCCC3)c(=O)c2=O)CC1 (centres undefined) | ? | >57
Cc1ccc(-n2nc(C)c3c2OC(N)=C(C#N)C3c2ccncc2)cc1 (centres undefined) | -17% | >57
O=C(c1cccc(S(=O)(=O)N2CCOCC2)c1)N1CCCC1 | -8% | >57
Cc1ccc(Cn2nc(C)c(NC(=O)c3cc(-c4ccco4)on3)c2C)cc1 | -11% | ?
COc1ccccc1CNc1cc(-c2cccc(C#N)c2)ncn1 | -1% | >57
O=C(CC1CCCC1)Nc1nnc(C2CC2)s1 | -16% | >57
O=C(CSc1nnc(-c2ccncc2)n1CC1CCCO1)NCc1ccccc1 (centres undefined) | -1% | >57
